Screening results (PubChem)
KCNQ2 block: KCNQ2 potassium channel inhibitors, primary screen, cell-based, CHO-K1, FluxOR thallium flux, B-score (AID 2156) | O88943 | 20 min; hits give low values; only compounds with negative scores are shown here; some inactives read as strong as hits | B-score at 10 µM | hit rate 1.1% among 310,000;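 active = fluorescence ratio B-score at most minus 3 library SDs, with starting brightness B-score within 2 library SDs, cut at about -5.5 in these data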
Target sequence (O88943 whole entry, looked up): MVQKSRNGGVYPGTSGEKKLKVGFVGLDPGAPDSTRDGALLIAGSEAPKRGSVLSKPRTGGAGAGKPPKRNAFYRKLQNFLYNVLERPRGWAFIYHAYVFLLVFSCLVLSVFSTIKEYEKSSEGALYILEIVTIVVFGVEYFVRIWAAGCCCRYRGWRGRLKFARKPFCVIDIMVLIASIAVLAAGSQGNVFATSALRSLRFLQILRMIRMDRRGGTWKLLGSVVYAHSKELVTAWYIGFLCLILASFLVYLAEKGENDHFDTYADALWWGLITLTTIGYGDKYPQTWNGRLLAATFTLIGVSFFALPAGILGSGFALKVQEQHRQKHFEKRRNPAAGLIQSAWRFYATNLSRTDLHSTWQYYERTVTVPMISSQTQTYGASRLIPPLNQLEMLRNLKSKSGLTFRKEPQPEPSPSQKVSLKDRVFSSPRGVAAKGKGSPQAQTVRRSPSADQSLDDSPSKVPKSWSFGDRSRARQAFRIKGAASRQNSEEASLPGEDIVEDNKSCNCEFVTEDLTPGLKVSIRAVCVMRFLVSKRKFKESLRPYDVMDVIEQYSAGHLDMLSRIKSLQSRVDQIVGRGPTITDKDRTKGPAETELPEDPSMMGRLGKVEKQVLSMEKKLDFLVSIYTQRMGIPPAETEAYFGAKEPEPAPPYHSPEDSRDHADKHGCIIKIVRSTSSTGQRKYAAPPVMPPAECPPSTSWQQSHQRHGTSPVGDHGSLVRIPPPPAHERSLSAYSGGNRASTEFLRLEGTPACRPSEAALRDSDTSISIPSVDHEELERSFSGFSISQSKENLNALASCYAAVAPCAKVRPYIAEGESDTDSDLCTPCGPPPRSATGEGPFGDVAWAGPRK
KCNQ2 block baseline: also measured in KCNQ2 block; calls as there; B-score; measured here: initial fluorescence intensity artifact check;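 brightness before thallium and not channel activity; 0 = typical well and far values either way flag optical interference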
Active calls of the source: *; i = inactive. Some of the compounds tested, so the mix of outcomes need not match the whole.

Start of the listing, in advance:
nr	SMILES	KCNQ2 block	KCNQ2 block baseline
1	Cc1cc(/C=C2\SC(=S)NC2=O)c(C)n1-c1ccc(O)cc1	i	1.8
2	O=C1C=C(c2ccccc2)OC2(CCCC2)O1	i	1.3

The list itself, from the start:
nr	SMILES	KCNQ2 block	KCNQ2 block baseline
1	Cc1cc(/C=C2\SC(=S)NC2=O)c(C)n1-c1ccc(O)cc1	i	1.8
2	O=C1C=C(c2ccccc2)OC2(CCCC2)O1	i	1.3
3	Cc1cc(C)cc(NC(=S)NC(=O)Cc2ccccc2)c1	i	2.1
4	Cc1cc(C)c2c(C)nn(-c3ccccc3)c2n1	i	0.55
5	COC(=O)CCC(=O)NC(=S)Nc1sc(C)c(C)c1C(N)=O	i	0.03
6	COc1ccccc1N(CC1CO1)S(=O)(=O)c1ccccc1 (configuration not stated)	i	0.77
7	Cc1ccc(-c2cc(C(=O)N/N=C/C=C/c3ccccc3)n[nH]2)s1	i	0.5
8	CC(c1nnnn1C1CCCCC1)N(Cc1ccccc1)Cc1cccnc1 (configuration not stated)	i	0.35
9	CN(C(=S)Nc1ccc(Oc2ccccc2)cc1)c1ccc(O)cc1	i	-2.5
10	N/C(=N\N=C\c1cccc([N+](=O)[O-])c1)c1nonc1N	i	1.3
11	COc1ccccc1C(=O)C1Nc2ccccc2-c2nnc(SC)nc2O1 (configuration not stated)	i	0.53
12	NC(=O)c1cccc2cc3ccccc3cc12	i	-2.7
13	O=C(NCc1ccccc1Br)c1ccco1	i	0.86
14	COc1ccc(S(=O)(=O)N2CCN(C3CCCCCCC3)CC2)cc1	i	0.13
15	Cc1cc(=O)oc2cc(OC(C)C(=O)NC3CCCC3)ccc12 (configuration not stated)	i	-1.5
16	CCOC(=O)N/N=C(\c1ccccc1)C(O)c1ccccc1 (configuration not stated)	i	-0.28
17	CN1CCN(C2=Cc3ccccc3Sc3cc(F)c(F)cc32)CC1	i	-0.21
18	COC(=O)c1ccccc1NC(=O)Cc1ccccc1OC	i	0.38
19	CCCCCCc1c(O)nc(SCC(=O)O)[nH]c1=O	i	0.07
20	COc1ccc(C2=NN(c3ccccc3)C(c3ccc(OC)c(OC)c3)C2)cc1 (configuration not stated)	i	0.92
21	COc1ccc(CN2CCN(Cc3ccc4cc(F)ccc4n3)CC2CCO)c(C)c1C (configuration not stated)	i	-0.81
22	Cc1ccc(N=N/C(=C\O)C(=O)c2ccncc2)cc1	i	-0.41
23	CCOC(=O)c1cnc2scnn2c1=O	i	-2.5
24	Cc1cc(C)c(/C=N/NC(=O)c2nnn(-c3nonc3N)c2CN2CCC(C)CC2)c(C)c1	i	-1.6
25	COC(=O)c1cc(Br)c(=O)n(CCc2ccc(O)cc2)c1	i	2.5
26	COc1ccc(N2CCN(CCNC(=O)c3ccc4nc5ccccc5c(=O)n4c3)CC2)cc1	i	1.1
27	c1ccc(CN2c3ccccc3-c3nc4ccccc4n3C2c2ccccn2)cc1 (configuration not stated)	i	-0.11
28	Cc1c(NC(=O)COc2cccc(Br)c2)c(=O)n(-c2ccccc2)n1C	i	0.28
29	O=C(c1ccc(Cl)cc1)N1CCN(c2ccc(F)cc2)CC1	i	1.4
30	Cc1ccc(NC(=O)C2CCCN2C(=O)NC2CCCCC2)cc1F (configuration not stated)	i	1.8
31	CC1(C)CC[C@]2(C(=O)O)[C@H](O)C[C@]3(C)C(=CCC4[C@@]5(C)C[C@H](O)[C@H](O)[C@@](C)(CO)C5CC[C@]43C)[C@@H]2C1 (some centres not stated)	i	-0.38
32	O=C(CNC(=O)c1cccs1)OCC(=O)c1cccs1	i	0.55
33	Cc1ccc(C(=O)COC(=O)c2cc(Cl)nc3ccccc23)cc1C	i	0.39
34	COc1cc(N)c(C(=O)c2nccc3cc(OC)c(OC)cc23)cc1OC	i	0.02
35	Cc1ccc(CN(C(=O)c2ccc(Cl)c([N+](=O)[O-])c2)C2CCS(=O)(=O)C2)o1 (configuration not stated)	i	-0.87
36	O=[N+]([O-])c1ccc(Oc2cccc3cccnc23)c([N+](=O)[O-])c1	i	0.17
37	O=C(CN1C(=O)NC2(CCCCCCC2)C1=O)NCc1ccc2c(c1)OCO2	i	0.4
38	C/C=C/c1ccc(OCC(=O)O)c(OC)c1	i	-0.45
39	OCCNc1c2ccccc2nc2c(F)c(F)c(F)c(F)c12	i	1.3
40	CCCc1cc(=O)[nH]c(SCC(=O)N(Cc2ccccc2)C(C)C)n1	i	0.63
41	O=C(CCc1ccccc1)Nc1ccnn1C1CCN(C/C=C/c2ccccc2)CC1	i	0.56
42	COc1cc2cc(-c3ccc(OC)c(OC)c3C)nc(N)c2cc1OC	i	0.37
43	CCOC(=O)Nc1nnc(CCc2ccccc2)s1	i	0.45
44	COc1cccc(CNC(=O)C2CCC(=O)N(CC3CCCCC3)C2)c1OC (configuration not stated)	i	-0.81
45	O=C1C[C@@H](c2ccc(O[C@@H]3O[C@H](CO)[C@@H](O)[C@H](O)[C@H]3O)cc2)Oc2cc(O)ccc21	i	-1.9
46	COc1ccc(NS(=O)(=O)c2ccc(-c3n[nH]c(=S)n3Cc3ccccc3)cc2)cc1	i	-0.51
47	COc1ccc(C)cc1NC(=O)c1nnn(CCc2ccccc2)c1N	i	-1.1
48	O=C(CSc1nnc(C2COc3ccccc3O2)o1)NC1CCCCC1 (configuration not stated)	i	2.3
49	O=C(O)c1ccc(S(=O)(=O)N(Cc2cccs2)CC2CCCO2)cc1 (configuration not stated)	i	0.34
50	Cc1cc(C)c(C(=O)CSc2nc(C)cc(=O)[nH]2)c(C)c1	i	0.01
51	Cc1cccc(-n2nnnc2SCC(=O)NCCN2C(=O)CSC2=O)c1	i	-0.18
52	O=C(CN1C(=O)CCS(=O)(=O)c2ccccc21)Nc1ccc2c(c1)OCCO2	i	-1.3
53	CC1(C)Oc2ccc3ccc(=O)oc3c2/C(=N/O)C1=O	i	5.4
54	Fc1ccc(C(c2nnnn2Cc2cccs2)N2CCN(c3ccccc3)CC2)cc1 (configuration not stated)	i	-0.42
55	COCCCn1c(=O)c2sccc2n(Cc2cccc(C)c2)c1=O	i	1.6
56	CC(C)CNS(=O)(=O)c1ccc2c(c1)OCCO2	i	1.4
57	CCCOc1nc2c(c(=O)n(C)c(=O)n2C)n1CCC	i	-0.02
58	Cc1ccc(S(=O)(=O)N2CCC(C(=O)OCc3ccccc3)CC2)cc1C	i	-2.2
59	COc1ccc(-c2[nH]ncc2CN2CCN(C(=O)c3cccs3)CC2)c(F)c1	i	-0.52
60	C/C(=N\NC(=O)CNC(=O)c1ccccc1Br)c1ccco1	i	-0.27

The listing continues:
nr	SMILES	KCNQ2 block	KCNQ2 block baseline
61	CCOCCCNC(=O)C1CCCN1C(=O)Nc1ccccc1[N+](=O)[O-] (configuration not stated)	i	5.6
62	O=C(CN1CCN(c2cccc(Cl)c2)CC1)Nc1ccc([N+](=O)[O-])cc1C(=O)Nc1ccccc1F	i	0.05
63	CCCC(=O)Nc1ccc2c(c1)nc1n2CCOC1	i	0.37
64	CCOC(=O)C(NC(=O)c1cccc(Cl)c1)(OCc1ccc(F)cc1)C(F)(F)F (configuration not stated)	i	0.02
65	O=C(N/N=C\c1cc(Br)c(Br)o1)C1COc2ccccc2O1 (configuration not stated)	i	1.9
66	CCOC(=O)c1c(C)[nH]c(C)c1S(=O)(=O)NCCN1CCN(c2cc(Cl)ccc2C)CC1	i	-1.4
67	COc1ccc2cc(-c3cc(C(=O)OCC(=O)Nc4c(C)n(C)n(-c5ccccc5)c4=O)c4ccccc4n3)ccc2c1	i	-0.91
68	OC(COc1ccc2c(c1)CCC2)CN1CCN(c2ccccc2F)CC1 (configuration not stated)	i	1.4
69	COc1cc(CNCc2ccc(OC)c3ccccc23)cc(OC)c1OC	i	-0.04
70	C[C@@H]1CCC[C@H](C)N1Cc1nc(Cc2ccccc2Cl)no1	i	0.28
71	O=C(O)c1nc(Cl)c(Cl)c(N/N=C/c2ccccc2C(F)(F)F)c1Cl	i	-0.31
72	COc1ccc(Nc2nc(OC)nc(N3CCN(c4ccc(OC)cc4)CC3)n2)cc1	i	-1.1
73	C/C(=N\N=c1/scc(C)n1Cc1ccco1)c1cccc([N+](=O)[O-])c1	i	-1
74	O=C(COC(=O)c1cc(-c2cccs2)nn1-c1ccccc1)Nc1cccc([N+](=O)[O-])c1	i	-0.77
75	Cc1ccc(N2C(=O)/C(=C\c3ccc(C(C)C)cc3)N=C2SC2CCOC2=O)cc1 (configuration not stated)	i	-0.02
76	CSc1ccc(NC(=O)N2CC=C(n3c(=O)[nH]c4ccccc43)CC2)cc1	i	0.64
77	COCc1c(C(=O)N/N=C/c2cccc3ccccc23)nnn1-c1nonc1N	i	1.8
78	COc1c(C(=O)Nc2ccc(Cc3ccncc3)cc2)ccc2ccccc12	i	-1.3
79	CCOC(=O)c1c(CSc2ccccc2)n(C)c2cc(Br)c(OC)c(O)c12	i	-0.57
80	O=c1c2ccccc2nc(/C=C/c2ccccc2)n1CCc1ccccc1	i	0.18
81	CCOc1ccc(CN(C)C(=O)c2cc3ccccc3o2)cc1OC	i	1.7
82	CCC1(CC)C(=O)C(C)(C)C(=O)OC1c1ccccn1 (configuration not stated)	i	0.11
83	Cc1[nH]c2ccccc2c1CCN(Cc1cccnc1)C(=S)Nc1ccc(F)cc1	i	0.47
84	CCOc1ccc(Br)cc1-c1noc(-c2cccs2)n1	i	-0.26
85	O=C(CSc1ncnc2c1nnn2-c1ccc(F)cc1)NCc1ccco1	i	0.94
86	O=C(c1ccco1)N1CCN(C2CC(=O)N(c3ccc(F)c(Cl)c3)C2=O)CC1 (configuration not stated)	i	-0.92
87	CN(C)CCCCCNCCCNC(=O)/C=N\O	i	0.11
88	C=C1CCN([C@@H](CC(C)C)C(=O)Nc2ccc(OC)cc2)S(=O)(=O)c2ccccc21	i	2.4
89	CC(=O)Nc1ccc(NC(=O)CSc2ccccn2)cc1	i	0.14
90	CC(C)/C(=N/Nc1ccccc1[N+](=O)[O-])c1ccccc1	-6.4*	0.14*
91	COc1ccc([N+](=O)[O-])cc1NC(=O)c1cn(-c2ccc(Cl)cc2)c(=O)c2ccccc12	i	1.6
92	CCOc1cc2c(cc1OCC)C(C(=O)O)C(c1ccc(OC)c(O)c1)N(C)C2=O (configuration not stated)	i	1.6
93	Cc1cc2cc(CN(CC3CCCO3)C(=O)c3cnccn3)c(=O)[nH]c2cc1C (configuration not stated)	i	-0.04
94	O=C(CN1CCN(c2ccccn2)CC1)N1c2ccccc2CCc2ccccc21	i	-0.88
95	COc1cccc(Oc2ccc(C(F)(F)F)cc2N)c1	i	0.73
96	Cc1ccc(NC(=S)NC(NC(=O)c2ccccc2C)C(Cl)(Cl)Cl)c(C)c1 (configuration not stated)	i	0.05
97	CCN(CC)C(=O)C(=O)Nc1cc(C(F)(F)F)ccc1Cl	i	-1.1
98	COc1ccccc1/C=C\C=N\n1c(-c2ccc(Cl)cc2Cl)n[nH]c1=S	i	0.08
99	CC(=O)Nc1ccc(SCCCC(=O)c2ccccc2)cc1	i	0.68
100	Cc1nccc(-c2cccc(NC(=O)c3ccccc3Cl)c2)n1	i	1.6
101	Cc1ccc(S(=O)(=O)CCC(=O)N2CCN(c3ccc([N+](=O)[O-])cc3)CC2)cc1	i	-0.67
102	Cc1cc(C)nc(NCC(O)COc2ccccc2C)n1 (configuration not stated)	-5.9*	-2.3*
103	COc1ccccc1CNC(=O)CSc1nc2c(oc3ccccc32)c(=O)n1CC1CCCO1 (configuration not stated)	i	0.06
104	Cc1ccc(NC(=O)COC(=O)c2cccnc2)cc1	i	-1.3
105	Cc1onc(-c2ccccc2)c1C(=O)NCCc1ccncc1	i	0.42
106	CC(=O)OCCOCn1cnn2c(=O)c(Br)c(C)nc12	i	-1.6
107	Cn1c(CNC(=O)c2ccccc2F)cc2ccccc21	i	0.65
108	COc1cccc(/C=N/NC(=O)CN2CC(c3ccccc3)CC2=O)c1OC (configuration not stated)	i	-1.1
109	COc1ccc(C2C(C(=O)N3CCC(C)CC3)c3ccccc3C(=O)N2C)cc1 (configuration not stated)	i	1.5
110	CC1SCC(=O)N(CC(=O)NCCc2ccccc2)C1=O (configuration not stated)	i	0.98
111	COC(=O)c1ccc2c(c1)NC1=C(C(=O)CC(C)(C)C1)C(c1ccncc1)N2 (configuration not stated)	i	-0.73
112	COc1cccc(NC(=O)CSC2=NN3CCCC(=O)N=C3S2)c1	i	-0.73
113	Cc1cccc(NC(=S)N2CCCCCC2)c1C	i	0.98
114	O=C(NNS(=O)(=O)c1ccc(Cl)cc1)NC1CCCCC1	i	-3.2
115	COC(=O)C/C(O)=C(/N=Nc1cccc(C(F)(F)F)c1)C(=O)OC	i	-0.35
116	CCOC(=O)c1c(C)n(C)c2cc(Br)c(O)c(O)c12	i	-1.2

5 compounds already listed, sorted by count of non-hydrogen atoms, low to high.
nr	SMILES	KCNQ2 block	KCNQ2 block baseline
106	CC(=O)OCCOCn1cnn2c(=O)c(Br)c(C)nc12	i	-1.6
97	CCN(CC)C(=O)C(=O)Nc1cc(C(F)(F)F)ccc1Cl	i	-1.1
100	Cc1nccc(-c2cccc(NC(=O)c3ccccc3Cl)c2)n1	i	1.6
93	Cc1cc2cc(CN(CC3CCCO3)C(=O)c3cnccn3)c(=O)[nH]c2cc1C (configuration not stated)	i	-0.04
94	O=C(CN1CCN(c2ccccn2)CC1)N1c2ccccc2CCc2ccccc21	i	-0.88

One compound at a time (already shown).
Cc1nccc(-c2cccc(NC(=O)c3ccccc3Cl)c2)n1 is listed as KCNQ2 block: i; KCNQ2 block baseline: 1.6
COc1cccc(/C=N/NC(=O)CN2CC(c3ccccc3)CC2=O)c1OC (configuration not stated) is listed as KCNQ2 block: i; KCNQ2 block baseline: -1.1
